RGS16-Gao: modulates binding between human RGS16 and Galphao; O15492+P09471; bead-based flow cytometry RGS16-Galphao binding, fluorescence; actives lie on both sides; binding response (% of control), % at 10 µM; 220,000 tested, 0.38% active; AID 1441;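 active = below 25% or above 175%, edge rows of some plates excepted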;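 note: Galphao activated by GDP with aluminum fluoride before binding; 100% = wells without compound and 0% = beads without RGS; some results beyond the cut were filed as inactive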
Target sequence (O15492 whole entry, looked up): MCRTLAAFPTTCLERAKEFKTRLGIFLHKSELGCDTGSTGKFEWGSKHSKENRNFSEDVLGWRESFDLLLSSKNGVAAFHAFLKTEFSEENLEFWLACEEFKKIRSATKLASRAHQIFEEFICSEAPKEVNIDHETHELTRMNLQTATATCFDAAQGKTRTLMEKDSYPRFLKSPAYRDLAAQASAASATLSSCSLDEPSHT
Target sequence (P09471 whole entry, looked up): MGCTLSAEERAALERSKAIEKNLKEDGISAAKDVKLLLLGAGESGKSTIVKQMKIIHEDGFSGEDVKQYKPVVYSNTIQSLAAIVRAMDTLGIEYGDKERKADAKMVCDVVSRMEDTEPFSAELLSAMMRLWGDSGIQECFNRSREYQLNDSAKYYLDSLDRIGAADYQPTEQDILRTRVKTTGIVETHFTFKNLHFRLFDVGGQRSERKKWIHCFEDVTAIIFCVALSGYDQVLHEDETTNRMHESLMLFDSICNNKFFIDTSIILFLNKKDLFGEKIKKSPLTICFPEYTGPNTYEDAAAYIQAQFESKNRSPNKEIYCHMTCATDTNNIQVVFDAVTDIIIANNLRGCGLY
GALR2 agonist: activates the human galanin receptor 2 | O43603 | 140,000 tested, 0.48% active | GALR2-expressing cells, agonist activation read-out | activation, %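 (tested at 5 µM)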;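 active = above mean plus 3 SD of all compounds, about 5% in these data, not always enough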;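 note: 0% = vehicle buffer wells and 100% = reference agonist at full effect; tested in CHO reporter cells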
Target sequence (O43603 whole entry, looked up): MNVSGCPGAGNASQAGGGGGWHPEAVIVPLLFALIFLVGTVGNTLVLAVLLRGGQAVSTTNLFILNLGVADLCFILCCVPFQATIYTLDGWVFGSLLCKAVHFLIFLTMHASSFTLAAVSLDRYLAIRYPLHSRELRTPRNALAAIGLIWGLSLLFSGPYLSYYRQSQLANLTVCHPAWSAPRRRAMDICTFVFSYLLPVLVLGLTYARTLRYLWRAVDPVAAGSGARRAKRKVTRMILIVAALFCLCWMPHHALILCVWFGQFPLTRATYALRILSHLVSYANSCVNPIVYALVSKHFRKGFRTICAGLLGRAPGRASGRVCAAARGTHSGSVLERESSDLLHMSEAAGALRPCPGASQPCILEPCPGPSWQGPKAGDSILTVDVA
PKD1 inh: blocks activity of human protein kinase D1 | Q15139 | PKD1 kinase fluorescence polarization assay | inhibition, %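 (about 10 µM by stock and volumes)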 | 200,000 tested, 0.056% active;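 active = inhibition of 50% or more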;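 note: controls were vehicle for no effect and a reference inhibitor for full effect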
INS promoter inh: TRM-6 insulin promoter activity inhibition. TRM-6 cells (human fetal islet line), insulin promoter-eGFP reporter, imaging; reporter expression induced with tamoxifen. 130,000 tested, 0.9% active. inhibition, % at 2 µM. AID 1273;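 active = inhibition above the mean plus 3 SD, with well images judged a real hit on visual review, cut at about 60% in these data, passing the limit was not always enough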
HSV replic up: HSV replication enhancement; HSV replication augmentation in cells, fold increase; maximum fold increase; 220,000 tested, 0.005% active;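 active = peak rise of 1.5-fold or more in the series; tested in PC3 cells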;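 note: first round at 10 µM; read as green reporter fluorescence; hits show the peak of a series up to 25 µM; 1 = signal of infected wells without compound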
INS promoter inh cell count: further read-out of INS promoter inh, marked with its call; normalized cell count, %; measured here: cell count, toxicity; reference of the scale not given here;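 cells exposed to compound for 48 h; stained nuclei by imaging scaled within each plate; lower means fewer cells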
HSV replic up primary fold: second read-out of HSV replic up, no call of its own (marks repeat the call); fold increase; compound at 10 µM; measured here: primary screen fold increase 10 uM; tested in PC3 cells;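 GFP signal in the first replicate; 1 = infected wells without compound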
Starred values were filed as active, the others as inactive; i = inactive; / = no result given.

SMILES	RGS16-Gao	GALR2 agonist	PKD1 inh	INS promoter inh	INS promoter inh cell count	HSV replic up	HSV replic up primary fold
NCCc1nnc(SCc2ccccc2F)o1	109	-0.9	-16	/	/	i	0.83
CCN(CC)CCSc1nnc2c3ccccc3n(Cc3ccccc3)c2n1	102	/	/	/	/	i	0.41
CCCCCCOc1ccc(N2C(=O)CC(SC(=NCC)NCC)C2=O)cc1 (stereo not drawn)	117	/	1	-36	139	i	0.95
Cc1n[nH]c(C)c1CCCCOc1ccccc1	104	/	-1	-140	56	i	0.94
O=C(O)c1cccnc1SCC(=O)C12CC3CC(CC(C3)C1)C2	101	/	/	/	/	i	0.99
COc1ccc(C)cc1NC(=O)c1nn(C)cc1Br	98	/	/	/	/	i	0.83
O=C(CCCCCn1c(=S)[nH]c2ccc(N3CCOCC3)cc2c1=O)NCc1ccccc1Cl	122	/	-4	-9	60	i	0.97
O=c1c(Cc2ccccc2)c(O)c2cccc3c4c(n1c23)CCCC4	91	/	/	/	/	i	1.1
COc1ccc(-c2cc3ccccc3n2CC(O)CN2CCC(C)CC2)cc1 (stereo not drawn)	109	/	3	/	/	i	1
COc1ccc(C2CC(c3cccs3)=NN2C(=O)c2ccc(Br)o2)cc1 (stereo not drawn)	25	0.6	-3	-8	120	/	/
CCCCN(C(=O)COc1ccc(NC(C)=O)cc1)C1CCS(=O)(=O)C1 (stereo not drawn)	97	/	0	/	/	i	0.84
CC(C)N(C(=O)c1ccccc1-c1ccccc1)C(C)C	100	0.1	-2	3	119	i	0.94
Cc1cc(=O)oc2c1ccc1oc(/C(=N/O)c3ccccc3)c(C)c12	105	-2.0	7	-208	44	i	0.93
Cc1ccccc1N1CCN(C(=O)C2CCCCC2)CC1	104	-5.2	1	-15	103	i	0.89
CCN(CC(=O)NCc1ccc(Cl)cc1)S(=O)(=O)c1ccc(NC(C)=O)cc1	101	/	1	/	/	i	0.95
O=C(NCc1cccnc1)C1CCN(C(=O)c2ccc(Cl)cc2Cl)CC1	100	-0.4	2	31	143	i	0.81
CSCC[C@H](NC(=O)CCn1nnc2ccccc2c1=O)C(=O)O	100	-1.5	5	-150	90	i	0.83
CCOC(=O)C1CCN(C(=O)c2sccc2Cl)CC1	96	/	/	/	/	i	0.89
N#Cc1ccccc1Cn1c(=O)n(-c2ccc(CC(=O)NCc3ccco3)cc2)c(=O)c2sccc21	105	-0.5	5	30	120	i	0.85
CC(=O)c1cnc2cc(-c3ccc(Cl)cc3)nn2c1C	106	-1.4	2	-58	96	i	0.86
CCOC(=O)c1ccc(CSc2ncn[nH]2)o1	103	-2.0	-2	-19	102	i	0.86
O=C(CSc1ccccc1)Nc1ccc(N2CCN(c3ccccc3)CC2)c(F)c1	96	-1.6	2	/	/	i	0.9
Cc1ccc(C)n1NC(=O)c1ccc(O)cc1	103	-2.2	7	25	111	i	0.97
CN(C)c1ccc(C(=O)OCC(=O)c2cccs2)cc1	122	-1.1	3	38	111	i	0.91
CCOC(=O)N1CCN(C(=O)CSCC(=O)Nc2nc(-c3ccccc3)cs2)CC1	83	-1.3	4	0	47	i	0.72

Taken from above:
O=C(CSc1ccccc1)Nc1ccc(N2CCN(c3ccccc3)CC2)c(F)c1 @ RGS16-Gao: 96
O=C(O)c1cccnc1SCC(=O)C12CC3CC(CC(C3)C1)C2 @ RGS16-Gao: 101

Later entries
SMILES	RGS16-Gao	GALR2 agonist	PKD1 inh	INS promoter inh	INS promoter inh cell count	HSV replic up	HSV replic up primary fold
Cc1nn(C(C)C(=O)NCc2ccccc2)c(C)c1[N+](=O)[O-] (stereo not drawn)	104	-1.9	5	/	/	i	0.67
O=[N+]([O-])c1ccc2nc(SCc3cn4cc(Cl)ccc4n3)[nH]c2c1	101	-0.1	2	/	/	i	0.89
COc1cc(C(=O)Oc2ccccc2N)cc(OC)c1OC	88	-0.5	-2	-12	105	i	1
Cc1c(NS(=O)(=O)c2ccc(N3CCN(C)CC3)c([N+](=O)[O-])c2)c(=O)n(-c2ccccc2)n1C	96	/	-6	16	115	i	0.83
CC1CC(C)CN(C(=O)CSc2nnc(-c3ccc(Cl)s3)o2)C1 (stereo not drawn)	87	-0.8	-1	-43	108	i	0.94
Cc1ccc(NC(=O)CSc2ncc3ccccn23)cc1C	109	/	0	0	108	i	1.1
Cc1csc(NC(=O)Cc2ccccc2[N+](=O)[O-])n1	102	0.5	5	-31	119	i	1
Cn1cc(Br)c(-c2cccc(N3C(=O)CCCC3=O)c2)n1	109	/	/	/	/	i	0.92
FC(F)(F)c1nc(N2CCN(c3ccccc3)CC2)nc2c1CCCCC2	59	-1.5	-4	/	/	i	0.97
O=C(NC1CC1)C1CCN(Cc2cnn(-c3ccccc3)c2-n2cccc2)CC1	102	-2.4	-1	27	144	i	0.92
Cc1cc(C)cc(OCc2nc(-c3cccnc3)no2)c1	99	/	-3	4	98	i	0.83
COc1ccc(COC(=O)Nc2cc3c(C(F)(F)F)nn(C)c3s2)cc1	112	-2.7	1	-53	131	i	0.98
Cc1cc(F)ccc1S(=O)(=O)Nc1ncnc2scc(-c3ccc(F)cc3)c12	96	0.4	1	19	99	i	0.89
O=C(NCN1C(=O)C2C3C=CC(C3)C2C1=O)Nc1ccccn1 (stereo not drawn)	106	0.1	-8	29	51	i	1
Cc1cc(/C=N/N2CCN(C)CC2)c(C)n1-c1ccc(Cl)cc1	96	/	/	/	/	i	1
CCCCSc1nc2c(c(=O)n1CC)SC(C)C2 (stereo not drawn)	100	-0.3	9	40	116	i	0.82
COc1ccccc1[C@@H]1C(c2cccc(Cl)c2)=NN(c2ccc(Br)cc2)[C@H]1C(=O)N1CCOC1=O	98	18*	8	32	114	i	0.85
Clc1ccc2c(c1)C(C1=NCCN1)c1ccccc1CS2 (stereo not drawn)	133	-1.4	7	-62	7	i	0.63
Cc1cccc(NC(=S)Nc2ccc(N3CCOCC3)cc2)c1C	41	0.2	0	/	/	i	1.1
CCOC(=O)c1c(NC(=O)C2CCN(S(=O)(=O)c3cccs3)CC2)sc(C)c1C	94	-1.9	-6	-454	57	i	0.94
Cc1cc(/C=N/NC(=O)C(O)(c2ccccc2)c2ccccc2)c(C)n1-c1cccc(C(=O)O)c1	102	/	/	/	/	i	1.1
CN(c1ccccc1C(=O)NCC1CCCO1)S(C)(=O)=O (stereo not drawn)	103	-0.7	-10	52	76	i	1.1
CCCOc1ccc(C(=O)CCN2CCN(C(=O)OCC)CC2)cc1	104	/	-7	21	86	i	0.77
COc1ccc(NC(=O)Cn2nnc(-c3ccccc3NC(=O)c3ccco3)n2)cc1	103	-1.5	-6	21	114	i	0.66
COc1c(Br)cc([N+](=O)[O-])c(OC)c1C(=O)NC(=O)Nc1c(Cl)cccc1Cl	102	/	/	/	/	i	1.1
Next records:
SMILES	RGS16-Gao	GALR2 agonist	PKD1 inh	INS promoter inh	INS promoter inh cell count	HSV replic up	HSV replic up primary fold
CN1c2ccccc2C(O)=C(C(=S)Nc2ccccc2)S1(=O)=O	99	-2.0	10	/	/	i	0.64
Cc1cc(C)c2sc(NC(=O)CN3C(=O)CCC3=O)nc2c1	103	/	/	/	/	i	1.1
N=C(N)c1ccc(/C=C/c2ccc(C(=N)N)cc2O)cc1	105	/	/	/	/	i	1.1
CC(=O)Nc1ccc(N(C(=O)CNC(=O)c2ccco2)C(C(=O)NCc2ccco2)c2ccccc2F)cc1 (stereo not drawn)	99	/	3	/	/	i	1.1
Cc1ccc(Nc2ncccc2C(=O)O)cc1C	100	-2.5	-13	-31	90	i	1
CCOC(=O)C1CCCN(c2c(NCCN(CC)c3ccccc3)c(=O)c2=O)C1 (stereo not drawn)	105	-0.7	-7	/	/	i	0.81
CCN(CC)CCNc1nc2cc(OC)c(OC)cc2c2nc(-c3ccccc3)nn12	102	-2.1	1	-12	179	i	0.46
O=c1c2ccccc2c(C=Nc2cccc(S(=O)(=O)NC3=NCCCCC3)c2)c(O)n1Cc1ccccc1	117	/	/	/	/	i	0.87
Cc1nn(Cc2ccccc2)c(C)c1NC(=O)CCCn1nc([N+](=O)[O-])cc1C	103	/	-8	18	174	i	0.95
CNCC(=O)Nc1ccc(OC(F)(F)F)cc1	100	/	-11	/	/	i	1.2
CCc1ccc(-c2cc(C(=O)NN3CCOCC3)c3ccccc3n2)s1	100	/	-7	/	/	i	0.96
COc1ccccc1C(=O)Nc1ccc(C(=O)N2CCCC2)cc1	108	-1.6	-1	64	157	i	0.99
COC(=O)c1c(C(=O)OC)c2cc(C(=O)c3ccccc3)ccn2c1Cl	95	1.0	-2	-261	113	i	0.84
CC(=O)c1cnn(-c2ccc(Cl)cc2)c1C	93	/	/	/	/	i	1.3
Cc1cc([N+](=O)[O-])ccc1NC(=O)/C=C/c1cccs1	105	-1.0	-6	/	/	i	0.9
CCOC(=O)NC(Nc1ccc(C)cn1)(C(F)(F)F)C(F)(F)F	92	-0.6	3	/	/	i	0.87
CCc1ccccc1NC(=O)C(C#N)Cc1cccnc1 (stereo not drawn)	/	-1.7	-7	-160	43	i	0.76
CCOC(=O)N1CCN(S(=O)(=O)c2ccc3c(c2)oc(=O)n3C)CC1	100	-2.2	-5	-5	111	i	1.2
CC1(C)CCCC2=C1CC1C(=O)N(O)C(=O)C1C2 (stereo not drawn)	106	-1.2	-10	-36	68	i	0.83
Cc1nn(-c2ccccn2)c2c1C(c1ccccn1)C1=C(CCCC1=O)N2 (stereo not drawn)	95	-1.6	-8	-39	120	i	0.75
COCCNC(=O)Nc1ccc2c(c1)N(C)C(=O)CS2	98	0.2	-3	65	122	i	1.1
Cc1cc(C(=O)N/N=C/C=C/c2ccc3c(c2)OCO3)n[nH]1	94	-0.2	-10	3	106	i	0.94
CC(=O)NCCCNS(=O)(=O)c1ccc(C)cc1	123	/	0	/	/	i	1
O=C(COC(=O)/C=C/c1cccs1)Nc1nc(-c2cccc(Br)c2)cs1	105	/	/	/	/	i	0.94
CN(C)/C=C(\C#N)C(N)=C(C#N)C#N	98	/	-1	/	/	i	0.94
Continuation.
SMILES	RGS16-Gao	GALR2 agonist	PKD1 inh	INS promoter inh	INS promoter inh cell count	HSV replic up	HSV replic up primary fold
O=C(CSc1nnc(-c2ccccc2F)n1C1CCCCC1)N1CCCC1	101	0.0	9	/	/	i	0.97
COc1c(O)cccc1-c1nnn(CCC(=O)OCC(=O)c2ccccc2)n1	101	-0.9	-5	/	/	i	1.6
O=C(CCCOc1ccccc1)Nc1cccc(C(=O)O)c1	109	-2.1	4	-14	141	i	1
Cc1cccc(C(=O)Nc2ccc(C)c(OC(=O)c3cccc(C)c3)c2)c1	102	-1.0	-14	-12	64	i	0.96
CCCCC(=O)Nc1cccc(NC(=O)c2ccc(Br)cc2)c1	109	-0.1	-3	20	132	i	1
Cc1c(NC(=O)C(C)OC(=O)COc2cccc3c2OC(C)(C)C3)c(=O)n(-c2ccccc2)n1C (stereo not drawn)	107	-0.9	-3	-39	74	i	0.95
COc1ccc2c(=O)c3c(=O)n(Cc4ccco4)c(-c4ccccc4)nc3oc2c1	93	0.1	1	14	88	i	0.69
Cc1onc(-c2ccccc2Cl)c1C(=O)NCC(=O)O	98	-3.0	-2	6	79	i	1
COc1ccc2nc(N/C(N)=N/C(=S)Nc3ccccc3)nc(C)c2c1	99	/	-5	14	128	i	0.86
O=C(Nn1c(C2CCCCC2)nc2ccccc2c1=O)c1ccc(Cl)c([N+](=O)[O-])c1	96	-0.1	2	-97	98	i	0.87
O=c1c2ccccc2nc2n1CC/C2=C/N1CCN(c2cccc(C(F)(F)F)c2)CC1	100	-1.5	-4	6	107	i	1
C=CCNC(=O)NS(=O)(=O)c1ccc(C)cc1	103	0.4	-8	61	75	i	1.1
CCc1ccccc1NC(=O)COc1ccc2c(c1)OCO2	102	/	2	/	/	i	0.99
Cc1cc(C)n(C(=O)c2ccc(C)c(S(=O)(=O)N3CCCCC3)c2)n1	112	-2.8	2	45	68	i	1

4 entries from above, set out differently:
| canonical_smiles | RGS16-Gao | GALR2 agonist | PKD1 inh | INS promoter inh | INS promoter inh cell count | HSV replic up | HSV replic up primary fold |
| --- | --- | --- | --- | --- | --- | --- | --- |
| Cc1ccc(NC(=O)CSc2ncc3ccccn23)cc1C | 109 | / | 0 | 0 | 108 | i | 1.1 |
| Cc1csc(NC(=O)Cc2ccccc2[N+](=O)[O-])n1 | 102 | 0.5 | 5 | -31 | 119 | i | 1 |
| Cn1cc(Br)c(-c2cccc(N3C(=O)CCCC3=O)c2)n1 | 109 | / | / | / | / | i | 0.92 |
| FC(F)(F)c1nc(N2CCN(c3ccccc3)CC2)nc2c1CCCCC2 | 59 | -1.5 | -4 | / | / | i | 0.97 |

The order is random. Share with any hit: about 1.3%.
